H5N1 CPE – antiviral screen in MDCK cells, H5N1 avian flu; cytopathic effect, luminescence, 72 h; stronger effect = higher value; no value below 0 was filed and about half of the inactive calls have no number; reference of the scale not given here; inhibition, % at 50 µM; 96,000 compounds, 0.07% hits; AID 740; in the data active means inhibition above about 25%
Active calls of the source: *; i = inactive. This is a subset; rates above refer to the full screens.

SMILES | H5N1 CPE
CC(C)c1ccc(N(CC(=O)O)S(=O)(=O)c2cccnc2)cc1 | 0.5
O=C1CCC(=O)N1CCc1c[nH]c2ccccc12 | i
O=C(/C=C/c1ccc(Cl)cc1Cl)c1nc2ccccc2[nH]1 | 0.1
O=C(Nc1ccccc1)Nc1ccccn1 | 1.0
Cc1ccc(-n2nnc3ccccc3c2=O)cc1C | i
COC(=O)c1ccc(NC(=O)CN(c2ccc(C)cc2)S(=O)(=O)c2c(C)nn(C)c2C)cc1 | 0.2
CSc1ccc(C2C(C#N)=C(N)Oc3cc4c(cc32)OCO4)cc1 (configuration not stated) | i
Cc1cc(N2CC(=O)N(CCc3ccccc3)C(=O)C2)n2ncnc2n1 | 1.1
CC(C)(C)NC(=O)c1ccc(Sc2ccccc2)c([N+](=O)[O-])c1 | 0.7
NC(=O)NC(=O)CSc1nnc(-c2ccco2)n1Cc1ccccc1 | i
Cc1cccc(OCCCC(=O)Nc2ccc(N3CCOCC3)cc2)c1 | 1.6
C/C(=N\NC(=O)CSc1nc2nc(C)cc(C)n2n1)c1ccccc1 | 4.8

(list continues)
SMILES | H5N1 CPE
CCOC(=O)C1=C(CC)Nc2ccccc2N=C1NC(=O)c1cc(S(=O)(=O)N(C)C)ccc1Cl | i
CC(Sc1ccc(Cl)cc1)C(=O)NCC1CCCO1 (configuration not stated) | i
CC(C)OC(=O)c1c(NC(=O)c2cnn3c2NC(c2ccccc2)CC3C(F)F)sc2c1CCCC2 (configuration not stated) | 1.2
OC(COc1ccccc1)CN1C2=NCCCN2c2ccccc21 (configuration not stated) | 0.4
Cc1cc(C(=O)NC2CCCc3ccccc32)c(C)o1 (configuration not stated) | 1.9
Cc1cc(NC(=O)COC(=O)c2ccc(F)c(S(=O)(=O)N3CCOCC3)c2)no1 | 0.9
O=C(Nc1ccccn1)C1CCN(S(=O)(=O)c2cccs2)CC1 | 0.6
N#Cc1ccc(C2=NC(C(F)(F)F)(C(F)(F)F)c3c(n(Cc4ccco4)c(=O)[nH]c3=O)N2)cc1 | 3.2
CCC(=NCCc1ccccc1)C1=C(O)CCC1=O | 0.7
COc1ccc(OCCNC(=O)c2ccccc2OCC(=O)N2CCCCC2)cc1 | 4.0
Cc1cc2cc(C)c3nnc(SCC(=O)N4CCCc5ccccc54)n3c2cc1C | 2.5
CC(=O)c1coc2ccc(OCCN3CCCCC3)cc12 | 0.4

(further entries)
SMILES | H5N1 CPE
CCOc1ccc(N=C2SC(C(=O)O)CC(=O)N2C)cc1 (configuration not stated) | 0.6
Cc1nn(C(=O)c2ccco2)c(C)c1Sc1ccccc1 | i
COC1=Cc2c(ccc3ccc(=O)oc23)OC1(C)C | i
CC(=O)Nc1ccc(S(=O)(=O)NCC2CCC(C(=O)NCCC(C)C)CC2)cc1 (configuration not stated) | 0.1
CCOC(=O)C(CC)(CCC(=O)O)c1csc(N)n1 (configuration not stated) | i
O=C(C1CCC(CNS(=O)(=O)c2cccc3cccnc23)CC1)N1CCCC1 (configuration not stated) | 3.6
C=CCS/C(=N\n1cnc2ccccc2c1=O)N1CCCCC1 | 0.1
Nc1c(Cl)cc(Cl)cc1C(=O)OCC(=O)NC1CC1 | 0.1
CCc1ccc(OC(=O)c2ccn(CC)n2)cc1 | 0.4
CCOC1(OCC)N=C(N)C2(C#N)C(c3cccc(C)c3)C12C#N (configuration not stated) | 0.8
Cn1c(SCc2ccccc2)nnc1-c1cccs1 | 0.6
CCN(CC)C(=O)c1cc2cc([N+](=O)[O-])ccc2s1 | 0.1

The list goes on.
SMILES | H5N1 CPE
COc1ccccc1N1CCN(CCC(=O)Nc2ccc3c(c2)OCO3)CC1 | 0.4
CCN(C#N)c1nc(NC(C)C)nc(NC(C)C)n1 | i
CC(C)(C)Nc1cccccc1=O | i
Cc1cccc(N2CC(C(=O)O)CC2=O)c1 (configuration not stated) | 0.7
CC(c1ccccc1)C1C(C#N)=C(N)SC(N)=C1C#N (configuration not stated) | i
CC1CCN(S(=O)(=O)c2cccc(C(=O)Nc3ccccn3)c2)CC1 | 0.3
CC1(C)CC(=O)C=C(NCc2ccccc2)C1 | 0.5
O=C(CSc1nc2ccccc2o1)Nc1ccccc1 | i
O=S(=O)(NCc1cccnc1)c1cccc2nsnc12 | 1.4
CCC(Sc1nc(=O)cc(N)n1CCc1ccccc1)C(=O)Nc1ccccc1C#N (configuration not stated) | i
CC(C)Sc1nc(N2CCOCC2)c2c3c(sc2n1)COC(C)(C)C3 | 2.3
CC(C)Cn1c(=O)c(C(=O)Nc2cnccn2)c(O)c2ccccc21 | 0.5

Continued:
SMILES | H5N1 CPE
CC(=O)c1ccc(NC(=O)C2CCCN2S(=O)(=O)c2cccc3cccnc23)cc1 (configuration not stated) | i
NS(=O)(=O)c1cc(C(=O)OCC(=O)NC2CC2)ccc1Cl | i
O=C(Nc1cccc2ncccc12)c1cccc(F)c1 | 1.0
O=C1CCCN1CN(C(=O)c1ccc2c(c1)OCO2)c1cccc(Cl)c1 | i
CCCCN1C2=NCCCN2c2ccccc21 | i
Cc1ccc(C(=O)CSc2nnnn2C(C)C)c(C)c1 | 0.2
COc1ccccc1Nc1nc(-c2sc(NC(=O)c3ccc([N+](=O)[O-])cc3)nc2C)cs1 | i
Cc1c(C(=O)N2CCC(C(N)=O)CC2)sc(N)c1C#N | 0.7
O=[N+]([O-])c1cccc(CN(CCO)Cc2ccccc2)c1 | 1.1
CC(C)CC(OC(=O)c1cccs1)C(=O)NCc1ccco1 (configuration not stated) | 0.8
NNC(=O)C=C1CCN(c2ncc(C(F)(F)F)cc2Cl)CC1 | 0.9
Nn1c(-c2cccc(Br)c2)n[nH]c1=S | 0.2

(next part)
SMILES | H5N1 CPE
CCN(C(=O)COc1ccccc1)c1nnc(-c2cccnc2)s1 | 0.1
Cc1cc(C)cc(OCC(=O)Nc2ccc(F)cc2)c1 | i
CCCCOC(=O)c1ccc(NC(=S)NC(=O)c2c(Cl)cnn2CC)cc1 | i
CCOC(=O)c1nnn(-c2nc(OC)nc(N(C)C)n2)c1-c1ccccc1 | 0.9
C=CCSc1n[nH]c(-c2ccc(OC)cc2)n1 | i
Cc1cc(C)c2oc(-c3ccc(C)c(NC(=S)NC(=O)c4cccs4)c3)nc2c1 | 1.4
COc1ccc(-c2nnc(N(C)C(=O)c3cccnc3)s2)cc1 | i
Cn1c2ccccc2c2ncn(CCC3=CCCCC3)c(=O)c21 | i
CCOc1ccc(NC(=O)CSc2nnc(C3CC3)n2N)cc1 | i
COc1ccc(C2CC(=O)c3c(ccc4ccccc34)N2)cc1OC (configuration not stated) | 2.2
CC(C)n1c(Nn2cnnc2)nc2ccccc21 | i
C=CCc1c(C)[nH]c(=S)c(C#N)c1C | 0.2

Additional compounds:
SMILES | H5N1 CPE
O=C(NCc1ccc2c(c1)OCO2)c1ccc2snnc2c1 | i
O=C1C=C(NCCNc2c(F)c(F)c(CO)c(F)c2F)CCC1 | i
CC1CCC(C(=O)NC(C(=O)NCc2ccccn2)C(C)C)CC1 (configuration not stated) | i
O=C(CS(=O)CC(=O)N(CC(=O)NC1CCCC1)C1CCCCC1)Nc1ccc(F)cc1 (configuration not stated) | 0.0
CCOC(=O)c1ccc2nc3c(cc2c1)CCS3 | 0.3
CCCCOc1ccc(NC(=O)CSCC(=O)OCC)cc1 | i
COc1ccccc1N1CCN(C(=O)c2ccc3c(=O)n(Cc4ccco4)c(=S)[nH]c3c2)CC1 | i
Cc1cc(C#N)c(C)n1-c1cc(C(F)(F)F)ccc1N1CCOCC1 | 0.4
S=c1[nH]nc(-c2ccc3ccccc3n2)o1 | i
CCCOc1ccc(C2C(C(=O)OC)=CN(CCOC)C=C2C(=O)OC)cc1 | 0.5
Cn1c(=O)c2[nH]c(-c3ccccc3O)nc2n(C)c1=O | 3.2
O=C(Nc1ccc(Cl)cc1C(=O)NCCN1CCOCC1)c1ccc(Cl)cc1Cl | i

Further compounds.
SMILES | H5N1 CPE
CCOC(=O)CCc1c(C)c2c(C)nn(-c3ccccc3)c2[nH]c1=O | i
Cc1ccc(S(=O)(=O)N(c2nc(N(C)C)nc(N(C)C)n2)n2cnnc2)cc1 | 0.1
O=C1CCC(=O)N1OCCOc1ccc2c(c1)CCC2 | i
O=C1c2ccccc2S(=O)(=O)N1CCOc1ccc(F)cc1 | i
Cc1ccc(C)c(S(=O)(=O)NCc2ccc(C(=O)N3CCCCC3C)cc2)c1 (configuration not stated) | 0.2
COc1ccc(S(=O)(=O)/N=C2/C=CC(=O)C(C)=C2C)cc1 | i
CN(C)C(=O)CCc1nc2sc3c(c2c(=O)[nH]1)CCCC3 | 1.7
Cc1cccc(CCNC(=O)C2CCC(CNc3c(N4CCCC4)c(=O)c3=O)CC2)c1 (configuration not stated) | i
CC(=O)Nc1ccc(NC(=O)Cn2cc3c(n2)CCC(C)C3)cc1 (configuration not stated) | 0.1
COc1ccc(NC(=O)c2cnc(C)cn2)cc1-n1cnnn1 | 0.1
CC(C)Nc1oc(Cc2cccc3ccccc23)nc1C#N | i
O=C(c1ccc(COc2ccccc2Cl)o1)N1CCCC1 | 0.3

An excerpt of these results, field by field.
O=C(Nc1cccc2ncccc12)c1cccc(F)c1
  H5N1 CPE: 1.0
O=C1CCCN1CN(C(=O)c1ccc2c(c1)OCO2)c1cccc(Cl)c1
  H5N1 CPE: i
CCCCN1C2=NCCCN2c2ccccc21
  H5N1 CPE: i

Further records:
SMILES | H5N1 CPE
COCCCN1C(=O)c2ccc(C(=O)O)cc2C1=O | i
CCC(OC(=O)CCc1nc2ccccc2[nH]c1=O)C(=O)c1ccccc1 (configuration not stated) | i
COC(=O)c1cc(C)sc1NC(=O)CCCC(=O)O | 0.9
CCOC(=O)N1CCN(C(=O)Cn2cc3c(n2)CCCC3)CC1 | 0.4
COc1cc(NC(=O)c2ccc(C)cc2)c(OC)cc1NC(=O)CN1CCOCC1 | i
Cc1cc(NC(=O)Nc2ccc(F)cc2)no1 | i
Cc1cc(NC(=O)Cn2nnc3sc4c(c3c2=O)CCCC4)no1 | i
O=C(c1ccccc1)c1cccn1CC(=O)N1CCN(c2ccc(F)cc2)CC1 | 0.2
O=C(Nc1ccc2oc(-c3ccccc3Cl)nc2c1)c1ncn[nH]1 | 1.3
CCOC(=O)c1cc2c(=O)n3ccccc3nc2n(CCCOC)c1=NC(=O)C(C)(C)C | 0.8
COc1ccc(CN2CC(C(=O)NCCCN3CCN(C)CC3)CC2=O)cc1 (configuration not stated) | i
CCCn1c(=N)n(CC(=O)c2cccs2)c2ccccc21 | 0.3

Later entries.
SMILES | H5N1 CPE
CN(C(=O)C1CCCO1)c1nnc(-c2ccccn2)s1 (configuration not stated) | 1.2
COc1ccc(C2C(C#N)=C(N)SC(N)=C2C#N)cc1OC | i
Cc1nc(SCC(=O)OCc2ccccc2)c(C#N)c(-c2ccccc2)c1C(=O)Nc1ccccc1 | 1.2
CCN1C(=O)C2(/C(=C(\O)c3ccc4c(c3)OCCO4)C(=O)C(=O)N2CCCOC)c2ccccc21 (configuration not stated) | i
Cc1cc(C(C)(C)C)c(O)c(C)c1CC1=NCCN1 | i
CCCCc1c(O)nc(SCC(=O)N2CCOCC2)n(-c2ccccc2C)c1=O | 0.8
Cn1c(=O)[nH]c(=O)c2c1nc(N1CCN(Cc3ccccc3)CC1)n2CCSc1ncccn1 | 3.7
Cc1occc1C(=O)NCCc1cccc(Cl)c1 | i
Cc1c(C)c2cc(Cl)c(O)c(CN3CCCC(C)C3)c2oc1=O (configuration not stated) | 0.3
Cc1cccn2c(=O)c(/C=C(\C#N)S(=O)(=O)c3ccc(Cl)cc3)c(N3CCC(C(N)=O)CC3)nc12 | 0.9
Cc1oc2nc(SCC(=O)Nc3ccc(S(N)(=O)=O)cc3)nc(NC(=O)c3ccccc3)c2c1C | 0.7
CC(C)=CCC/C(C)=C/C=N/NC(=O)c1ccccc1[N+](=O)[O-] | i

Of the compounds above, these have a tert-butyl group.
SMILES | H5N1 CPE
CC(C)(C)NC(=O)c1ccc(Sc2ccccc2)c([N+](=O)[O-])c1 | 0.7
CC(C)(C)Nc1cccccc1=O | i
CCOC(=O)c1cc2c(=O)n3ccccc3nc2n(CCCOC)c1=NC(=O)C(C)(C)C | 0.8
Cc1cc(C(C)(C)C)c(O)c(C)c1CC1=NCCN1 | i

New compounds follow.
SMILES | H5N1 CPE
CCCCn1nc2cc(C(=O)NCc3ccc(OC)cc3)ccc2c1OCC | 2.9
COCCCNC(=O)c1cc(OC)c(OC)c(OC)c1 | 2.0
COc1cc2oc3ccccc3c2cc1N(CC(=O)N(C)C)S(=O)(=O)c1ccccc1 | 1.2
COc1ccc(/C(N)=N/OC(=O)c2cccc([N+](=O)[O-])c2C)cc1OC | 0.1
O=C(Nc1nnc(SCc2ccc(F)cc2)s1)c1ccco1 | i
O=C(CCCC(=O)N(c1ccc2c(c1)OCCO2)C(C(=O)NC1CCCCC1)c1ccc(Cl)cc1)Nc1ccccn1 (configuration not stated) | i
CCCCCCOC(=O)c1ccc(NC(=O)c2cc(OC)c(OC)c(OC)c2Br)cc1 | 0.3
c1csc(-c2cn3c(n2)SCC3)c1 | 0.6
COC(=O)COc1nsnc1N1CCOCC1 | 1.1
Cc1cccc(-c2noc(-c3cc4ccccc4oc3=O)n2)c1 | 0.1
C=CCn1c(SCC(=O)Nc2sccc2C(N)=O)nc2ccc(Cl)cc2c1=O | i
COc1ccc2c(=O)c(N3C(=O)c4ccccc4C3=O)coc2c1 | 0.0

(continued)
SMILES | H5N1 CPE
Cc1ccc(CC2C(=O)N(C)C(=O)N(C)C2=O)s1 | 0.3
COc1ccccc1N1CCN(C(=O)c2ccc(CS(=O)(=O)c3ccccc3OC)o2)CC1 | 1.3
COc1ccccc1CNC(=O)c1ccc(NS(C)(=O)=O)cc1 | 0.4
Cc1cc(S(=O)(=O)N2CCN(c3ncccn3)CC2)ccc1-n1cnnn1 | i
COc1ccccc1NC(=O)c1nnn(CC(=O)Nc2cccc(SC)c2)c1N | i
Cc1ccc2nc(SCC(=O)Nc3nnc(SCC(N)=O)s3)[nH]c2c1 | i
Cc1cccc(-n2nnc(C(=O)NCc3ccccn3)c2N)c1 | i
Cc1nc(NC(=O)CCCC(=O)Nc2nc(C)c(C)s2)sc1C | i

Screening data from PubChem.
